Screens from PubChem BioAssay.
Hsc70 ATP site: Hsc70 inhibitors, probe displacement, primary screen, biochemical, fluorescence polarization (AID 568); displacement, % at 20 µM; hits with a dose series show IC50 in µM; 83,000 tested, under 10 active; Hsc70 fluorescence polarization, probe displacement; higher % means a stronger effect; strong numbers were not always called active;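 active = displacement above 50% without optical interference and an IC50 on retest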;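 also: ATPase domain with a fluorescein-tagged ATP probe; 0% = vehicle and 100% = excess ADP; read after one hour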
MT1-MMP reporter: inhibitors of MT1-MMP promoter transcription, cell-based, luciferase reporter, luminescence (AID 618). calls from a first round at 10 µM; hits with a dose series show EC50 in µM. MT1-MMP promoter luciferase reporter cells, luminescence. 0.62% of 87,000 active;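 active = over half of the reporter light lost at 10 µM or EC50 under 50 µM; inactive = the rest and hits that failed the dose series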;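 also: actives suppress MT1-MMP promoter-driven transcription so potencies describe inhibitors; HT1080 fibrosarcoma cells; overnight exposure; toxic or luciferase-blocking compounds were not removed from the actives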
WNV NS2B-NS3 inh: blocks West Nile virus NS2B-NS3 protease activity. P06935. WNV NS2B-NS3 protease, fluorogenic substrate Ex360/Em465; active compounds read low. z-score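 (tested at a level between 10 and 100 µM)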. 0.18% of 65,000 active. AID 577;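 active = z-score at -3 or under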;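 also: score is relative to mean and spread of the compound wells of a plate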
Target sequence (P06935 1371-1501 limits assumed): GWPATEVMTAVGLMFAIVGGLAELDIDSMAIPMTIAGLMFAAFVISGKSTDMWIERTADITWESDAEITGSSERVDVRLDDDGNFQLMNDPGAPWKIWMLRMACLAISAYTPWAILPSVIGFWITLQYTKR
Target sequence (P06935 1502-1679 limits assumed): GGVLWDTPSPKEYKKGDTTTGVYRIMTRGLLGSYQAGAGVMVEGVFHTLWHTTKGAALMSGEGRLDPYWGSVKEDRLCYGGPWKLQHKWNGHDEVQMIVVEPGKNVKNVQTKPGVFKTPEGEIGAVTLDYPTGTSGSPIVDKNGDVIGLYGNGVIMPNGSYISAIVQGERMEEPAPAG
An asterisk follows results filed as active; i = inactive; . = not tested or not shown.

Compound	MT1-MMP reporter	Hsc70 ATP site	WNV NS2B-NS3 inh
COc1ccc(S(=O)(=O)NCc2ccccn2)cc1Cl	i	2.7%	0.87
CC(=O)C1=C(O)C(=O)N(CCN2CCOCC2)C1c1ccc(N(C)C)cc1 (stereo not given)	i	1.7%	0.42
O=C(O)C1CCN(C(=O)c2ccccc2C(=O)N2CCC(C(=O)O)CC2)CC1	i	2.9%	0.35
Cc1ccsc1C1NC(=O)c2ccccc2N1 (stereo not given)	i	4.2%	0.94
CC(=O)NC12CC3CC(C1)CC(C(=O)OCC(=O)NC(=O)c1cccn1C)(C3)C2	i	-5.5%	0.76
Cc1ccc(-c2noc(CN3CCC(C(N)=O)CC3)n2)cc1	i	-2.6%	1.4
C=CCn1c(SCc2c(C)noc2C)nc2sc3c(c2c1=O)CCC(C)C3 (stereo not given)	i	0.7%	.
COCc1[nH]nc2c1C1(C(=O)N(C)c3ccccc31)C(C#N)=C(N)O2 (stereo not given)	i	-2.7%	-0.0013
O=C(c1ccc2nc(N3CCOCC3)sc2c1)N1CCCC1	i	-6.5%	0.28
COc1ccc(/C=N/n2c(SC)nnc2-c2ccccc2)cc1C	i	2.2%	0.07
Cc1ccc(C(=O)CSc2n[nH]c(-c3ccco3)n2)cc1C	i	5.2%	0.96
O=C(CN1C(=O)C2(OCCCO2)c2ccccc21)NCCc1ccccc1	i	-2.1%	-0.54
COc1ccc(C2C(C#N)=C(N)Oc3cc(N)ccc32)cc1OC (stereo not given)	i	-5.1%	0.02
CC1(C(=O)Nc2nnc(SCc3ccccc3)s2)Cc2ccccc2C(=O)O1 (stereo not given)	i	-2.2%	.
CCOC(=O)c1ccc2c(c1)C(=O)N(C1CCCCC1)C2=O	i	0.4%	-0.46
O=C(Nc1ccc(Cl)cc1)C1CCN(C(=O)NC2CCCCC2)CC1	i	4.6%	.
COc1ccc2c(c1)[n+](=O)c(C(C)=O)c(C)n2[O-]	i	-2.3%	.
O=C(c1ccco1)N1CCN(S(=O)(=O)c2ccc(S(=O)(=O)NC3CCCCC3)cc2)CC1	i	-2.6%	0.42
Nc1c(NC2CCCCC2)c2ccccc2oc1=O	i	1.1%	-0.71
COc1cccc(NC(=O)N2CCC(N3CCCCC3)CC2)c1	i	-0.2%	-0.67
CC(C)c1ccc(-c2nn[nH]n2)cc1	i	-3.8%	0.64
Cn1c(=O)oc2cc(S(=O)(=O)N3CCC(C(=O)N4CC=C(c5ccccc5)CC4)CC3)ccc21	i	-1.9%	-0.1
CN1C2C=C3C(C#N)=C(N)C(C#N)(C#N)[C@@H](c4ccc(Cl)cc4)[C@@H]3C1CC2 (stereo not given in full)	i	-0.5%	0.49
O=C(NCc1ccc2c(c1)OCO2)c1cc(S(=O)(=O)N2CCCCC2)ccc1F	i	-1.0%	-0.25
Brc1ccc(-c2nnc(-c3cccc(Br)c3)o2)cc1	i	-2.1%	.

(cont.)
Compound	MT1-MMP reporter	Hsc70 ATP site	WNV NS2B-NS3 inh
Cc1ccc2c(n1)CC(C)(C)C/C2=N\O	i	1.7%	.
Cc1cc(=O)oc2cc(OCc3ccc(S(=O)(=O)N4CCOCC4)cc3)ccc12	i	-1.0%	-0.14
COc1cccc(C2=NOC(C(=O)NCCCn3ccnc3)C2)c1 (stereo not given)	i	-1.2%	.
CN(c1nc(-c2ccccc2)cs1)C1CCS(=O)(=O)C1 (stereo not given)	i	7.4%	-0.07
O=C(O)CCCCCNC(=O)Nc1ccc2c(c1)OCCO2	i	4.4%	.
Oc1c(CN2CCN(c3ccccn3)CC2)cc(Cl)c2cccnc12	i	0.9%	3.5
CC(=O)N1CCN(S(=O)(=O)c2cccc(C(=O)Nc3nc4c(s3)CCCC4)c2)CC1	i	-2.3%	.
N#CCCCSC1=C(C#N)C(c2ccccc2Cl)CC(=O)N1 (stereo not given)	i	-6.2%	-0.19
Cc1onc(-c2ccccc2Cl)c1C(=O)Nc1nnc(-c2ccc(F)cc2)s1	i	-0.3%	0.26
COc1cc(NC(=O)c2cccc(Cl)c2)c(OC)cc1NC(=O)CN1CCOCC1	i	8.2%	0.1
CCOc1ccc(NC(=O)c2cccc(-n3cnnn3)c2)cc1	i	-0.6%	2.1
CCN(CC)S(=O)(=O)c1cccc(-c2nnc(SCC(=O)NC3CCCC3)n2N)c1	i	0.5%	.
Cn1nnnc1SCc1nnc(-c2ccccc2Br)o1	i	-1.2%	.
CC1CCN(CCc2nc3cc(NS(=O)(=O)c4ccccc4)ccc3n2C)CC1	i	5.3%	-1.9
Cc1[nH]c2ccccc2c1C1(O)C(=O)N(Cc2ccc3c(c2)OCO3)c2ccccc21 (stereo not given)	i	-9.9%	-1.3
O=C(NCC(=O)N(CC1CCCO1)C(C(=O)NC1CCCC1)c1cccnc1)c1ccco1 (stereo not given)	i	-3.2%	0.88
Cc1sc2nc(C3CC3)nc(NCCNS(=O)(=O)c3ccccc3)c2c1C	i	-0.3%	.
COc1ccc2oc(=O)c(C(=O)N3CCN(c4ccccc4C)CC3)cc2c1	i	1.1%	-2.8
C=CCn1c(SCCOC)nc2c1c(=O)[nH]c(=O)n2C	i	-3.3%	-1.5
C=CCn1c(SCC(=O)/C(C#N)=C(\C)N)nnc1C1CCCCC1	i	-1.3%	-0.43
Brc1ccc(CN2CCSCC2)cc1	i	-1.3%	.
COc1ccc(CCNc2oc(COc3ccccc3Cl)nc2C#N)cc1OC	i	6.7%	0.34
CCc1ccc(NC(=O)c2cc(-c3ccco3)on2)cc1	i	-6.6%	-0.97
CC(C)Cn1c2c(c(O)c(C(=O)Nc3ccc(F)cc3)c1=O)CCCC2	i	-4.3%	-0.28
COC(=O)CSc1nnc(CNC(=O)c2ccc(OC)cc2OC)n1C	i	0.1%	-1.2

Following part:
Compound	MT1-MMP reporter	Hsc70 ATP site	WNV NS2B-NS3 inh
Cc1ccc(CNc2ncnc3c2cnn3-c2ccccc2)cc1	i	-4.1%	-0.42
COc1cc(C(C)=O)ccc1OCC(O)CN1CCN(S(=O)(=O)c2ccccc2)CC1 (stereo not given)	i	5.1%	0.88
CCOC(=O)C1=C(C)NC(SCC(=O)O)=NC1c1ccccc1 (stereo not given)	i	-3.3%	0.33
Cc1c(Nc2ncnc3nc[nH]c23)c(=O)n(-c2ccccc2)n1C	i	1.2%	-0.3
CCOc1ccc(Nc2nc(Cc3nnc(SCC(N)=O)o3)cs2)cc1	i	-0.2%	-0.82
O=C(O)c1cccnc1SC1CC(=O)N(CCc2ccccc2)C1=O (stereo not given)	i	1.6%	.
CC(C)(C)C(=O)Nc1ccc2oc(-c3cc(F)c(F)cc3Cl)nc2c1	i	0.2%	.
O=C(O)c1ccccc1NS(=O)(=O)c1ccccc1C(F)(F)F	i	-1.5%	1.6
CCCn1nnc(NC(=O)c2ccccc2Br)n1	i	-4.1%	0.88
CN(C(=O)c1cccc(C#N)c1)c1nnc(C2CCOC2)s1 (stereo not given)	i	1.2%	2
CC(=O)c1ccc(NC(=O)C(Cc2ccccc2)NC(=O)c2ccco2)cc1 (stereo not given)	i	0.7%	.
CCCc1cc(=O)[nH]c(SCC(=O)c2cc(C)n(C3CC3)c2C)n1	i	4.5%	.
CCN(CC)CC(C)CNC(=O)CC(C(=O)N1CCc2ccccc21)n1ccnc1 (stereo not given)	i	2.4%	0.11
Clc1ccc(Oc2cccc(/C=N/n3cnnc3)c2)cc1	i	0.2%	1.4
Cc1ccc(S(=O)(=O)c2c(COC(=O)c3cccc(Cl)c3)c(-c3ccccc3)nn2C)cc1	i	2.7%	.
N#Cc1c(N)nc(SCC(=O)OCc2ccccc2)c(C#N)c1-c1ccco1	i	-4.9%	1.2
CCOC(=O)CC1=NS(=O)(=O)c2ccccc2N1	i	6.0%	-1
CCc1ccc(C2CC(c3ccc(C)cc3)n3nc(N)nc3N2)cc1 (stereo not given)	i	0.1%	1.1
CCOC(=O)C(C(=O)OCC)=C1OC(=O)c2ccccc21	i	-4.2%	-0.5
C/C(=C1\SC(N2CCOCC2)=NC1=O)c1ccccc1	i	-6.6%	0.92
O=C(CSc1nnc(-c2ccncc2)n1Cc1ccccc1)Nc1nccs1	i	5.1%	.
CCn1ncc(C2=NOC(C(=O)N3CCN(c4ccccc4)CC3)C2)c1C (stereo not given)	i	9.8%	-0.15
COc1ccccc1C1/C(=C(/O)c2ccc(Cl)cc2)C(=O)C(=O)N1CCN1CCOCC1 (stereo not given)	i	2.0%	-0.95
COc1ccc(C(=O)COC(=O)CCn2nnc(-c3cccs3)n2)cc1	i	-6.6%	0.74
Cc1cc(C(=O)Nc2ccccn2)no1	i	-2.6%	1.5

Next compounds follow.
Compound	MT1-MMP reporter	Hsc70 ATP site	WNV NS2B-NS3 inh
COCC(=O)N(C)C1(c2nnnn2CCOC(=O)Nc2cccc3ccccc23)CCCC1	i	-0.1%	0.07
Cc1c(NC(=O)c2cc(-c3ccc4c(c3)OCO4)on2)c(=O)n(-c2ccccc2)n1C	i	-0.4%	0.53
COc1ccc(Cc2nnc(NS(=O)(=O)Cc3ccccc3)s2)cc1	i	5.9%	0.1
CN1CCN(C(=O)c2cn(-c3ccccc3)nc2-c2cccnc2)CC1	i	-2.1%	.
CC(C)Cc1nc2n[nH]c(N)c2c2c1COC(C)(C)C2	i	3.7%	.
Cc1cccc(NS(=O)(=O)c2cccc3cccnc23)n1	i	0.5%	1.2
CCOC(=O)c1sc2nc(CSc3nc4ccccc4n3CC)[nH]c(=O)c2c1C	i	-36%	0.71
CCSc1nnc(NC(=O)C2(C)Cc3ccccc3C(=O)O2)s1 (stereo not given)	i	-2.4%	-0.26
Cc1ccc2cc(S(=O)(=O)NCCCC(=O)O)ccc2c1	i	1.5%	0.5
CC(C)NC(=O)Cn1c(SCC(=O)N2CCCCCC2)nc2ccccc21	i	4.1%	-1.8
CCOC(=O)c1nonc1NC(C)=O	i	4.0%	.
CCOc1ccccc1-c1nn2c(Cc3ccccc3)nnc2s1	i	5.3%	-0.26
COc1cc2c(cc1OC)C(C(=O)Nc1ccccn1)C(c1cccnc1)N(C)C2=O (stereo not given)	i	7.6%	0.65
O=C(CCc1ccccc1)Nc1ccncc1	i	3.2%	0.08
CSc1nnc(-c2ccc(F)cc2)o1	i	0.9%	0.06
CC(=O)NC(O)C(=O)c1ccccc1 (stereo not given)	i	-7.8%	0.73
CC1CCN(C(=O)C2CCN(CC(C)c3ccccc3)CC2)CC1 (stereo not given)	i	-0.6%	.
CN(CC(=O)N1CCc2ccccc21)S(=O)(=O)c1ccc(Cl)cc1	i	-3.5%	0.55
COc1ccc(OC)c(CN2CCN(C(=O)c3cccc4ccccc34)CC2)c1	i	-5.4%	1.8
CN(C(=O)CSc1nc(-c2ccc(F)cc2)cs1)C1CCS(=O)(=O)C1 (stereo not given)	i	-0.9%	2.5
CC(=O)OCCCN1C(=O)c2ccc(Br)cc2C1=O	i	6.0%	0.28
COc1ccc(-c2nnc(SCc3c(C)noc3C)n2N)cc1OC	i	2.5%	.
CCn1c(SCC(=O)Nc2sc3c(c2C#N)CCCC3)nnc1-c1ccco1	i	1.6%	.
O=C1CC(c2ccco2)CC(O)=C1C=Nc1cc(Cl)cc(Cl)c1 (stereo not given)	i	2.7%	.
Cc1nn(-c2cc(N3CCCCCC3)ccc2[N+](=O)[O-])c(=O)c2ccccc12	i	-3.5%	.

Additional records
Compound	MT1-MMP reporter	Hsc70 ATP site	WNV NS2B-NS3 inh
Cc1cc(C(F)F)n2nc(C(=O)Nc3ccc(S(=O)(=O)N4CCCCCC4)cc3)nc2n1	i	6.3%	0.92
O=c1[nH]nnc2c1sc1nc(N3CCOCC3)c3c(c12)CCCC3	i	11%	0.53
COc1cccc(C2C3=C(CCCC3=O)Nc3nc4ccccc4n32)c1OC (stereo not given)	i	-1.7%	1.8
Cc1ccc2nc3n(c(=O)c2c1)CCCCC3	i	2.4%	.
CCCCn1nnnc1SCC(=O)c1cc(Cl)ccc1OC	i	-2.4%	.
O=C(Nc1cccnc1)c1cccnc1Cl	i	1.7%	.
CCS(=O)(=O)n1nc(-c2ccccc2)nc1NCc1ccco1	i	0.1%	-0.1

Some of these compounds in order of number of heavy atoms, largest number first.
Compound	MT1-MMP reporter	Hsc70 ATP site	WNV NS2B-NS3 inh
Cc1cc(C(F)F)n2nc(C(=O)Nc3ccc(S(=O)(=O)N4CCCCCC4)cc3)nc2n1	i	6.3%	0.92
Cc1nn(-c2cc(N3CCCCCC3)ccc2[N+](=O)[O-])c(=O)c2ccccc12	i	-3.5%	.
O=c1[nH]nnc2c1sc1nc(N3CCOCC3)c3c(c12)CCCC3	i	11%	0.53
CCS(=O)(=O)n1nc(-c2ccccc2)nc1NCc1ccco1	i	0.1%	-0.1
CCCCn1nnnc1SCC(=O)c1cc(Cl)ccc1OC	i	-2.4%	.
Cc1ccc2nc3n(c(=O)c2c1)CCCCC3	i	2.4%	.

Some of the compounds tested. The share of hits here may be higher or lower than overall.
